Screens as filed in PubChem BioAssay.
Bst PK mod = alters activity of Bacillus stearothermophilus pyruvate kinase | partly purified Bacillus stearothermophilus pyruvate kinase, luminescence ATP production; ribose 5-phosphate activator present at AC10 | Potency, µM | 1.2% of 51,000 active; in the data active means potency below about 11 µM; inconclusive means mostly about 12 µM to 25 µM; inactive means weaker than that;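 the screen sought inhibitors and activators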;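 note: potency is the fitted concentration of half-maximal effect; scaled between full activation by ribose 5 phosphate and full inhibition by luteolin; about four in five hits inhibit and the cells do not say which; series up to 57 µM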
YjeE inh = displaces an ADP probe from E. coli YjeE (TsaE). P0AF67. purified YjeE, fluorescence polarisation of a bound ADP probe. 0.05% of 71,000 active. Potency, µM; active = well fitted falling curve; inconclusive = weaker or top-dose-only fall, or a rising curve; inactive = flat or poorly fitted curve;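 note: top concentration of the series not given in the record; excess ADP was the control for the full effect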
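Purified YjeE (10 uM) with BODIPY Texas Red-labeled ADP probe (2 uM); compounds pin-transferred, 15 min at room temperature. Binding inhibition read as decreased fluorescence polarization; ADP titration as control.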
* marks the source's active call; other numbers are inactive results; i = inactive; ? = inconclusive; . = no result given.

nr | structure | Bst PK mod | YjeE inh
1 | Cc1nc(CC(=O)N2CCN(S(=O)(=O)c3ccccc3C#N)CC2)cs1 | >57 | i
2 | Cc1cccc(N2CCN(C(=O)CS(=O)(=O)Cc3nc(-c4ccccc4F)oc3C)CC2C)c1 (centres undefined) | . | i
3 | CC(c1ccccc1)C1C(C#N)=C(N)OC2=C1C(=O)CC(C)(C)C2 (centres undefined) | . | i
4 | COc1ccc(OC)c(NC(=O)CSc2nc3cccnc3n2C)c1 | >57 | i
5 | CCCCC(=O)Nc1cccc(-c2cn3ccsc3n2)c1 | i | i
6 | Cc1ccc(-n2c(SCC(=O)NCc3ccco3)nnc2-c2cccnc2)c(C)c1 | >57 | i
7 | Cn1c(=O)n(C)c2cc(/C=N/n3cnnc3)ccc21 | >57 | i
8 | COc1ccc(NC(=O)CSc2nc3ccccc3c(=O)n2CCNC(C)=O)c(OC)c1 | >57 | i
9 | Cn1cnc2nc3n(c2c1=O)CCC3 | . | i
10 | c1ccc(-c2cccc(N3CC4(CCNCC4)C3)c2)cc1 | . | i
11 | Cc1cccc(OCc2nnc(SCc3nc4cc(C(F)(F)F)ccc4c(=O)[nH]3)o2)c1 | >57 | i
12 | CC1CC(C)CN(CCCNC(=O)Cn2ncc3c(=O)oc4ccccc4c32)C1 (centres undefined) | . | i
13 | COc1ccc(-c2nc3cnc(Nc4cccc(OC)c4)nc3n(C[C@H]3CCCO3)c2=O)cc1 | . | i
14 | COc1ccccc1NC(=O)CCc1nc(-c2cccs2)no1 | >57 | i
15 | CN(C)c1ccc(CN(C(=O)COc2ccc(Br)cc2)C2CCS(=O)(=O)C2)cc1 (centres undefined) | >57 | i
16 | Cc1ccc(-n2ncc3c(=O)n(CC(=O)NC4CCCC4)cnc32)cc1C | >57 | i
17 | CC(C)CNC(=O)c1ccccc1NC(=O)CN(c1ccc2c(c1)OCCO2)S(C)(=O)=O | >57 | i
18 | O=C(NCN1CCCCC1)c1cccnc1 | >57 | i
19 | O=C(CN1C(=O)C2CC=CCC2C1=O)NC1=NCCS1 (centres undefined) | >57 | i
20 | Clc1ccccc1-c1nc(NC2CCNCC2)c2ccccc2n1 | . | i
21 | CCCn1c(C)nc2c(NCCOC)nc(C)nc21 | . | i
22 | CCOc1cccc(C(=O)Nc2cccc(-c3nnc(-c4ccccc4)o3)c2)c1 | . | i
23 | CC(C)COc1ccc(-c2nnn(CC(=O)N3CCCC3)n2)cc1 | . | i
24 | O=C(OCCN1CCCCC1)c1c[nH]c2ccccc12 | . | i
25 | CCCc1[nH]nc2c1C(C1CC=CCC1)C(C#N)=C(N)O2 (centres undefined) | . | i
26 | Cc1ccc(-c2cc(C(F)(F)F)c(C#N)c(SCCC#N)n2)o1 | >57 | i
27 | Cc1onc(-c2ccccc2Cl)c1-c1nc(-c2ccccn2)no1 | >57 | i
28 | CCC(CC)C(=O)NCCc1ccc(OC)c(OC)c1 | . | i
29 | O=C(CCN1CCCCC1)c1csc2ccccc12 | . | i
30 | Cc1ccc(NC(=O)CCNS(=O)(=O)c2ccc3c(c2)oc(=O)n3C)c(C)c1 | >57 | i
31 | CCOCCCNC(=O)c1c[nH]c2ccc(S(=O)(=O)Nc3cccc(OC)c3)cc2c1=O | >57 | i
32 | C/C=C/CSc1nc2c(c(=O)[nH]c(=O)n2C)n1Cc1ccc(C)cc1 | . | i
33 | Cc1nc(NCCCN2CCOCC2)c2oc3ccccc3c2n1 | >57 | i
34 | COc1ccc(N2CSC3=C(C#N)C(c4cc(OC)ccc4OC)CC(=O)N3C2)c(OC)c1 (centres undefined) | . | i
35 | CCOC(=O)c1c(NC(=O)CSc2nnnn2-c2ccc3c(c2)OCO3)sc(C)c1C | >57 | i
36 | Cc1ccc(S(=O)(=O)Nc2nc3ccc(S(C)(=O)=O)cc3s2)cc1 | . | i
37 | O=C(c1cc(C(F)(F)F)cc(C(F)(F)F)c1)N1CCC[C@@]2(CCN(c3ccccc3)C2)C1 | . | i
38 | COc1ccc(-c2cc3nc(C)c(CCC(=O)NCc4ccco4)c(C)n3n2)c(OC)c1 | >57 | i
39 | COC(=O)c1cc(Br)c(=O)n(CC(C)C)c1 | >57 | i
40 | O=c1[nH]c(N2CCN(c3ccccc3)CC2)nc2c1CCC2 | >57 | i
41 | COc1ccc(OC)c(S(=O)(=O)Nc2cnc3ccccc3c2)c1 | >57 | i
42 | CCC(C)(C)n1nnnc1C(c1ccccc1OC)N1CCSCC1 (centres undefined) | >57 | i
43 | COc1ccc(NS(=O)(=O)c2ccc(OCC(=O)N3CCCC3)cc2)cc1 | >57 | i
44 | Cc1ccccc1NC1C=CS(=O)(=O)C1 (centres undefined) | >57 | i
45 | Cc1ccc(S(=O)(=O)c2cc3c(=O)n4cccc(C)c4nc3n(Cc3ccco3)c2=N)cc1C | >57 | i
46 | CSc1nnc(Cn2c(=O)sc3ccccc32)n1C | . | i
47 | CC(NC(=O)NCc1cccnc1)(C(F)(F)F)C(F)(F)F | >26 | .
48 | Cc1ccc(S(=O)(=O)N2CCC(C(=O)N[C@H](C(=O)NCc3ccco3)C(C)C)CC2)cc1 | >57 | i
49 | O=C(CN1C(=O)c2ccccc2C1=O)NCC1COc2ccccc2O1 (centres undefined) | ? | i
50 | Cc1ccc2c3c(c(SCC(=O)Nc4nonc4C)nc2c1)CCCC3 | >57 | i
51 | Cc1cccc(CNc2ncncc2-c2ccccc2C)c1 | . | i
52 | CC(C)(C)C(=O)/C=c1\[nH]c(=O)/c(=C\c2ccc(C#N)cc2)s1 | >57 | i
53 | COC(=O)c1ccc(NC(=O)Cn2nnc3ccccc32)cc1 | >57 | i
54 | COCCn1c(C)cc2c(c1=O)C(c1ccccc1F)C(C#N)=C(N)O2 (centres undefined) | >57 | i
55 | CN1[C@@H]2CC(OC(=O)[C@H](CO)c3ccccc3)C[C@@H]1[C@H]1O[C@H]12 (some centres undefined) | . | i
56 | c1ccc(-c2noc(-c3ccc4ccccc4c3)n2)nc1 | 0.16* | i
57 | CCOC(=O)N1CCN(C(=O)C2CCC(CNS(=O)(=O)c3ccc(Cl)cc3)CC2)CC1 (centres undefined) | >57 | i
58 | O=S(=O)(c1ccccc1)c1nc(-c2ccco2)oc1NCc1ccco1 | >57 | i
59 | CCCN1C(=O)c2cc(C(=O)O)ccc2C1O (centres undefined) | . | i
60 | Cc1ccccc1-n1c(C)nnc1SCc1nc2ccccc2s1 | . | i

Four records picked at random from the list so far:
nr | structure | Bst PK mod | YjeE inh
46 | CSc1nnc(Cn2c(=O)sc3ccccc32)n1C | . | i
41 | COc1ccc(OC)c(S(=O)(=O)Nc2cnc3ccccc3c2)c1 | >57 | i
44 | Cc1ccccc1NC1C=CS(=O)(=O)C1 (centres undefined) | >57 | i
51 | Cc1cccc(CNc2ncncc2-c2ccccc2C)c1 | . | i

Laid out differently: entries from further up
entry	Bst PK mod	YjeE inh	SMILES
42	>57	i	CCC(C)(C)n1nnnc1C(c1ccccc1OC)N1CCSCC1 (centres undefined)
43	>57	i	COc1ccc(NS(=O)(=O)c2ccc(OCC(=O)N3CCCC3)cc2)cc1
44	>57	i	Cc1ccccc1NC1C=CS(=O)(=O)C1 (centres undefined)
45	>57	i	Cc1ccc(S(=O)(=O)c2cc3c(=O)n4cccc(C)c4nc3n(Cc3ccco3)c2=N)cc1C

(more compounds)
nr | structure | Bst PK mod | YjeE inh
61 | Cn1c(CCNC(=O)c2ccccc2)nc2ccccc21 | >57 | i
62 | CC1=NNC(=S)NCCCN2CCN(CCCNC(=S)NN=C(C)C=NNC(=S)NCCCN3CCN(CCCNC(=S)NN=C1)CC3)CC2 | . | i
63 | Cc1nc2sc(C(c3ccco3)N3CCN(c4ccc(F)cc4)CC3)c(O)n2n1 (centres undefined) | . | i
64 | CCn1cc(C(=O)NCCCOC)c(=O)c2cc(S(=O)(=O)N(C)C)ccc21 | . | i
65 | CC1Cc2nc(SCC(N)=O)n(C)c(=O)c2S1 (centres undefined) | . | i
66 | CC1CCN(c2[nH]c(=S)c(C#N)c3c2CCCC3)CC1 | >26 | .
67 | CCOC(=O)Cc1csc(NC(=O)c2cccs2)n1 | . | i
68 | Cc1cc(C)cc(OCC(=O)Nc2cccc(-c3nc4ncccc4o3)c2)c1 | . | i
69 | O=C(NCc1cccnc1)C1CCCN(S(=O)(=O)c2ccc(Cl)cc2)C1 (centres undefined) | i | i
70 | O=C(Nc1ccon1)c1ccc(Br)o1 | >57 | i
71 | Cc1c(CNC(=O)c2cnn3c2NC(c2ccccc2)CC3C(F)(F)F)cnn1C (centres undefined) | >57 | i
72 | CCCn1c(SCC(=O)N2CCCc3ccccc32)nnc1-c1ccco1 | >57 | i
73 | O=C(COC(=O)c1ccco1)NCC1CCCO1 (centres undefined) | >57 | i
74 | c1csc(Cn2c(-c3cccs3)nc3ccccc32)c1 | >57 | i
75 | COc1ccc(OCC(=O)N2CCN(C(=O)COc3ccc(Br)cc3)CC2)cc1 | >57 | i
76 | Cc1onc(-c2ccccc2)c1C(=O)NC(C)C1CCCO1 (centres undefined) | >57 | i
77 | COc1cccc(-c2csc3nnc(SCC(=O)c4ccc(NC(C)=O)cc4)n23)c1 | >57 | i
78 | C=CCN1C(=O)CN=C1Nc1cc(C)cc(C)c1 | >57 | i
79 | O=C(CCn1nnc2ccccc21)N1CCN(c2ccccc2)CC1 | >57 | i
80 | CCCCOC(=O)C(C#N)c1nc2ccccc2nc1N1CCN(Cc2ccc3c(c2)OCO3)CC1 (centres undefined) | >57 | i
81 | CCc1nnc(NC(=O)c2ccc(S(=O)(=O)N(CC)Cc3ccccc3)cc2)o1 | >57 | i
82 | Cn1c(=O)cc(SCC(=O)Nc2ccccn2)c2ccccc21 | >57 | i
83 | COCCn1c(C)cc(C(=O)CSc2ncn[nH]2)c1C | >57 | i
84 | COc1cccc(NC(=O)CSc2nnc(CNC(=O)c3ccccc3)n2C)c1 | >57 | i
85 | O=C1/C(=C/Nc2ccc3c(c2)OCO3)CCc2ccccc21 | . | i
86 | COc1cc2c(C(=O)NCCCN3CCN(c4cccc(Cl)c4)CC3)cn(C)c(=O)c2cc1OC | >57 | i
87 | O=c1c(-c2cccc(F)c2)nc2cncnc2n1Cc1ccccc1 | . | i
88 | CCOC(=O)N1CCN(c2cc(C)c(C(C)=O)cc2F)CC1 | >57 | i
89 | CC(C)(C)Sc1ccc(N)nc1 | >57 | i
90 | Cc1ccc(-n2cccc2C(=S)N=P(N(C)C)(N(C)C)N(C)C)cc1 | >57 | i
91 | CCOc1ccc2nc(N3CCC(C(=O)Nc4nnc(CC)s4)CC3)sc2c1 | . | i
92 | O=C1c2ccccc2-c2onc3ccc(NCCCn4ccnc4)c1c23 | ? | 25µM*
93 | COc1ccc(NC(=O)CCCC(=O)OCC(F)(F)C(F)F)cc1 | . | i
94 | CCOc1cc(C(=O)CSc2nnc(CNc3ccc(Cl)cc3)o2)ccc1NC(=O)CC | >57 | i
95 | COc1ncc2ncc(=O)n(CCC#N)c2n1 | . | i
96 | CCc1cc2c(=O)c(-c3cscn3)coc2cc1OC | >57 | i
97 | Cc1ccc2cc(C)c3nnc(SCC(=O)NCc4ccco4)n3c2c1 | ? | i
98 | COc1ccc(C(=O)Nc2c(F)c(F)c(F)c(F)c2F)c(OC)c1 | . | i
99 | COCCNC(=O)CS(=O)(=O)Cc1nc(-c2ccc(C)cc2)oc1C | . | i
100 | CSC1=NCCN1C(=O)COc1ccc2ccccc2c1 | . | i
101 | CN1[C@@H]2CC[C@H]1CC(OC(c1ccccc1)c1ccccc1)C2 (some centres undefined) | . | i
102 | O=C1Nc2ccc(S(=O)(=O)N3CCCC3)c3ccc(S(=O)(=O)N4CCCC4)c1c23 | >57 | i
103 | COc1ccc(OC)c(S(=O)(=O)Nc2ccccc2C(=O)O)c1 | >57 | i
104 | Cc1nnc(NC(=O)CSc2cn(CCNC(=O)c3ccccc3)c3ccccc23)s1 | . | i
105 | Cc1nnc(SCC(=O)N(C(C)C)C(C)C)nc1C | >57 | i
106 | CCCn1nnnc1SCC(=O)NCc1ccc2c(c1)OCO2 | >57 | i
107 | Cc1cccc2cc(CN(CCN3CCOCC3)C(=O)Nc3ccccc3F)c(=O)[nH]c12 | >57 | i
108 | CC1(C)C2CCC1(C)C(OC(=O)CC(=O)O)C2 (centres undefined) | >26 | .
109 | COc1cccc(Cn2nnc(C(=O)Nc3ccc(C)cc3)c2N)c1 | . | i
110 | COC(=O)c1oc2ccc(Br)cc2c1NC(=O)CCCN1C(=O)c2ccccc2C1=O | . | i
111 | COc1cc(C2=NOC(C(=O)N3CCCCCC3)C2)cc(OC)c1OC (centres undefined) | >57 | i
112 | c1ccc(COc2nsnc2N2CCOCC2)cc1 | . | i
113 | COC(=O)C1Cc2c([nH]c3ccccc23)CN1 (centres undefined) | i | i
114 | COc1ccccc1-n1cnc2cc(NCc3ccco3)ccc21 | >57 | i
115 | COc1ccc(N2C(=O)CC(N3CCC(C(N)=O)CC3)C2=O)cc1 (centres undefined) | >57 | i
116 | O=c1c2cc3c(cc2[nH]c(=S)n1Cc1ccco1)OCO3 | >57 | i
117 | O=C(NCCN1CCN(C(=O)c2cccs2)CC1)c1cccs1 | >57 | i
118 | CCOC(=O)c1ccc(NC(=O)CN2CCN(CCN=CC3=C(O)CC(C)(C)CC3=O)CC2)cc1 | >57 | i
119 | CCCS(=O)(=O)c1c(S(=O)(=O)CCC)c2cnccn2c1C(=O)c1ccc(F)cc1 | >57 | i
120 | Cc1nc2sc(C)c(C)c2c(=O)[nH]1 | >57 | i

More compounds:
nr | structure | Bst PK mod | YjeE inh
121 | O=c1cc(-c2ccccc2)[nH]c2ccccc12 | . | i
122 | CCC/C=C(\CCC)C(NC(=O)c1ccc(C(=O)OC)cc1)c1ccc(C(=O)OC)cc1 (centres undefined) | . | i
123 | CCSc1ccccc1C(=O)N1CCN(Cc2ccc3c(c2)OCO3)CC1 | >57 | i
124 | O=C(NCC1CCCO1)C1CCC(CNS(=O)(=O)c2ccccc2)CC1 (centres undefined) | >57 | i

These rows are one share of the data (hit frequency here may not be typical).
